# HSV replic up: increases HSV replication in cells; HSV replication augmentation in cells, fold increase; maximum fold increase; 220,000 tested, 0.005% active; AID 1956;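 active = peak rise of 1.5-fold or more in the series; inconclusive = self-fluorescent or not available for retest; tested in PC3 cells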;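 also: first round at 10 µM; read as green reporter fluorescence; hits show the peak of a series up to 25 µM; 1 = signal of infected wells without compound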
# INS promoter inh: TRM-6 insulin promoter activity inhibition | 130,000 tested, 0.9% active | inhibition, % at 2 µM | AID 1273 | TRM-6 cells (human fetal islet line), insulin promoter-eGFP reporter, imaging; reporter expression induced with tamoxifen;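 active = inhibition above the mean plus 3 SD, with well images judged a real hit on visual review, cut at about 60% in these data, passing the limit was not always enough; inconclusive = inhibition over the cutoff but images rejected on review; inactive = inhibition not above the cutoff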
# RGS16-Gao HTS: regulators of human RGS16-Galphao interaction | O15492+P09471 | AID 1441 | binding response (% of control), % at 10 µM | bead-based flow cytometry RGS16-Galphao binding, fluorescence; actives lie on both sides | 220,000 tested, 0.38% active;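 active = below 25% or above 175%, edge rows of some plates excepted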;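 also: Galphao activated by GDP with aluminum fluoride before binding; 100% = wells without compound and 0% = beads without RGS; some results beyond the cut were filed as inactive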
# GALR2 agonist: agonists of human galanin receptor 2 (GALR2); O43603; GALR2-expressing cells, agonist activation read-out; activation, %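 (tested at 5 µM)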; 140,000 tested, 0.48% active; AID 803;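 active = above mean plus 3 SD of all compounds, about 5% in these data, not always enough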;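 also: 0% = vehicle buffer wells and 100% = reference agonist at full effect; tested in CHO reporter cells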
# PKD1 kinase inh: PKD1 (human) kinase inhibition; Q15139; PKD1 kinase fluorescence polarization assay; inhibition, %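 (about 10 µM by stock and volumes)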; 200,000 tested, 0.056% active; AID 797;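 active = inhibition of 50% or more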;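 also: controls were vehicle for no effect and a reference inhibitor for full effect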
# Target sequence (Q15139 whole entry, looked up): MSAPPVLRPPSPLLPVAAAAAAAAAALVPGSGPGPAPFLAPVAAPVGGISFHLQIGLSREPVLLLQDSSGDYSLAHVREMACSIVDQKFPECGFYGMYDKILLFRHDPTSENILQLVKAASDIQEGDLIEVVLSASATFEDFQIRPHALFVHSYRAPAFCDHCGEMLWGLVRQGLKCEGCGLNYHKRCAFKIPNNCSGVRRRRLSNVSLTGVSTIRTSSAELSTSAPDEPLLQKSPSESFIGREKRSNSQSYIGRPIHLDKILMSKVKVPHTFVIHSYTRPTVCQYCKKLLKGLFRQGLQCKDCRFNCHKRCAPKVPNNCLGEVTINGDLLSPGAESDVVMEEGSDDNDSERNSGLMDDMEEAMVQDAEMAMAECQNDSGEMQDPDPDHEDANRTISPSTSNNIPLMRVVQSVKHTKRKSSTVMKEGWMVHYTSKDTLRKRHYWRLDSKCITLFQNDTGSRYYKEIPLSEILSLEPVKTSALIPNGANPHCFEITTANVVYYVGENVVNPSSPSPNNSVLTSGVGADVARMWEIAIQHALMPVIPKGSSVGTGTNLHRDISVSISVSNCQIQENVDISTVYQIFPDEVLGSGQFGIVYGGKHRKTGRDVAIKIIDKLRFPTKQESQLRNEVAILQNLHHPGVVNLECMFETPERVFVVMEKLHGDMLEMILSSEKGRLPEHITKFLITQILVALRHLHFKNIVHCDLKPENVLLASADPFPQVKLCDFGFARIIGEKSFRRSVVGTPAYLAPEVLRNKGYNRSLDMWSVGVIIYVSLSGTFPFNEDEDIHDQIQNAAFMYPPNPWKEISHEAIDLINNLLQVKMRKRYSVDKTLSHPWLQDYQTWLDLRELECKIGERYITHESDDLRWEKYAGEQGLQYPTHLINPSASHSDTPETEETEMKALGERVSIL
# INS promoter inh cell count: further read-out of INS promoter inh, marked with its call; normalized cell count, %; measured here: cell count, toxicity; reference of the scale not given here;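 cells exposed to compound for 48 h; stained nuclei by imaging scaled within each plate; lower means fewer cells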
# HSV replic up primary fold: recorded beside HSV replic up, whose call it bears; fold increase; compound at 10 µM; measured here: primary screen fold increase 10 uM; tested in PC3 cells;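 GFP signal in the first replicate; 1 = infected wells without compound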
# * = called active by the depositor; i = inactive; ? = inconclusive; · = not tested or not shown. Compounds were not picked by outcome (roughly 1.3% active in at least one column).
nr	structure	RGS16-Gao HTS	GALR2 agonist	PKD1 kinase inh	INS promoter inh cell count	HSV replic up	INS promoter inh	HSV replic up primary fold
1	CC(C)(C)OC(=O)N1CC2Cc3[nH]c(=O)ccc3C(C2)C1 (centres undefined)	101	-0.7	-4	109	i	43	1
2	CC(C)(C)CC(=O)Nc1cccc(-c2cn3cccnc3n2)c1	105	·	-9	·	i	·	0.79
3	COc1ccc(C2CC(c3cccs3)=NN2C(=O)CSC2=NN3CCCC(=O)N=C3S2)cc1 (centres undefined)	112	-2.6	4	·	i	·	1
4	N#CCOC(=O)c1sccc1-n1cccc1	95	0.9	-19	103	i	12	0.97
5	CCOc1ccccc1N1CCN(C(=O)Nc2cccc(Cl)c2)CC1	102	-0.7	-10	105	i	13	1.2
6	Cc1cccc(NC(=O)COn2nnc3ccc(S(C)(=O)=O)cc32)c1	114	·	1	137	i	24	1
7	CCOC(=O)c1ccccc1NC(=O)C1CC(=O)N(c2ccccc2)C1 (centres undefined)	99	·	-4	·	i	·	0.98
8	CC12CCC(C(=O)Nc3c(Cl)cccc3Cl)(C(Br)C1=O)C2(C)C (centres undefined)	94	-0.3	6	84	i	-75	0.76
9	CCNc1nc(NC(C)C)nc(OCCOC(=O)c2ccccc2)n1	111	-0.4	-6	123	i	33	0.94
10	Cc1sc(NC(=O)/C=C/c2ccc(C(C)C)cc2)c(C#N)c1C	105	-1.9	-12	60	i	8	0.82
11	S=C(NCCc1ccccc1)N/N=C/C1CCCCC1	102	·	-8	·	i	·	1
12	CCOc1cc(S(=O)(=O)NCc2ccccn2)ccc1Cl	104	-2.3	5	36	i	-403	0.99
13	O=C(NCc1ccc2c(c1)OCO2)C1CCCN1C(=O)Nc1cccc(F)c1 (centres undefined)	102	-0.8	-1	91	i	16	0.88
14	Cc1ccc(OCCN2CCN(C(=O)CCC(=O)Nc3nnc(CC(C)C)s3)CC2)cc1	99	·	·	·	i	·	1
15	O=C(NC(=O)c1ccccc1)NC1(C(F)(F)F)OCCO1	100	-2.8	-2	·	i	·	2.1
16	Cc1ccn2c(NC3CCCC3)c(-c3ccsc3)nc2c1	104	·	-9	74	i	-165	2.2
17	O=C(NCc1ccco1)c1ccc2c(c1)N(Cc1ccccc1)C(=O)CS2=O (centres undefined)	106	-1.5	-11	·	i	·	0.74
18	CCOc1cccc(NC(=O)Cn2nc(-c3ccc4c(c3)OCCO4)ccc2=O)c1	103	-2.0	-8	72	i	-369	0.94
19	ON(Cc1c(F)cccc1Cl)Cc1c(F)cccc1Cl	98	·	·	·	i	·	0.93
20	CC(C)NC(=O)Cn1cc(C#N)c2cc(Br)ccc21	100	-0.5	-7	47	i	-38	0.87
21	CCOC(=O)c1sc(NC(=O)CCC(=O)O)nc1C	101	·	1	·	i	·	0.75
22	O=c1ncn(-c2ccccc2F)c2ncccc12	98	-0.9	-2	·	i	·	0.92
23	COCC(=O)N(Cc1ccccc1)c1ccccn1	78	-1.4	-6	·	i	·	1.1
24	Cc1cnc(C(=O)OCC(=O)Nc2ccc(Oc3ccccc3)cc2)cn1	104	-2.3	-2	78	i	12	0.99
25	CN(C)S(=O)(=O)N1CCN(c2ccc(Cl)cc2)CC1	96	-2.4	14	150	i	25	0.86
26	CCn1c(COc2ccccc2OC)nnc1SCC#N	101	-0.9	5	111	i	-86	0.75
27	COc1cc(C(=O)OCC(=O)Nc2ccc3c(c2)OC(F)(F)O3)ccc1OCc1c(C)noc1C	32	-0.5	-2	121	i	-14	0.96
28	COCCCn1c(-c2cccs2)nc2nc3ccccc3nc21	104	·	·	·	i	·	0.9
29	COc1cccc(N2C(=O)N(c3ccccc3)C3CS(=O)(=O)CC32)c1 (centres undefined)	95	-1.4	-5	·	i	·	0.81
30	Cc1cccc(NC(=O)c2ccc(C3SCC(=O)N3CCc3ccccc3)cc2)c1 (centres undefined)	104	-0.1	-5	87	i	-23	0.78

# The final 4 entries of the part before open the next one.
nr	structure	RGS16-Gao HTS	GALR2 agonist	PKD1 kinase inh	INS promoter inh cell count	HSV replic up	INS promoter inh	HSV replic up primary fold
27	COc1cc(C(=O)OCC(=O)Nc2ccc3c(c2)OC(F)(F)O3)ccc1OCc1c(C)noc1C	32	-0.5	-2	121	i	-14	0.96
28	COCCCn1c(-c2cccs2)nc2nc3ccccc3nc21	104	·	·	·	i	·	0.9
29	COc1cccc(N2C(=O)N(c3ccccc3)C3CS(=O)(=O)CC32)c1 (centres undefined)	95	-1.4	-5	·	i	·	0.81
30	Cc1cccc(NC(=O)c2ccc(C3SCC(=O)N3CCc3ccccc3)cc2)c1 (centres undefined)	104	-0.1	-5	87	i	-23	0.78
31	Cc1cc(COc2ccccc2OCCN2CCN(C)CC2)no1	99	-2.0	4	95	i	17	1
32	COc1ccc(CNC(=O)C2Cc3ccccc3CN2C(=O)c2ccco2)cc1 (centres undefined)	102	·	105*	·	i	·	0.89
33	CCOc1ccc(/C=N/NC(=O)CC(=O)NCc2ccccc2)cc1	98	·	-6	·	i	·	0.91
34	COC(=O)c1cc(OC)c(OC)cc1NC(=O)c1cc(-c2ccccc2)nc2ccccc12	101	-2.5	-15	44	·	-55	·
35	CS(=O)(=O)N(CC(=O)NCCC1=CCCCC1)c1cccc([N+](=O)[O-])c1	97	·	-8	·	i	·	1
36	CC(C)(C)OC(=O)N1CCC(c2cc(=O)n3[nH]cc(C(=O)Nc4ccc(F)c(Cl)c4)c3n2)CC1	99	·	·	·	i	·	1
37	Fc1ccccc1N1CCN(C(c2cccs2)c2nnnn2CCc2ccccc2)CC1 (centres undefined)	89	4.5	-6	99	·	-8	·
38	O=C(CSc1nc2ccccc2[nH]1)N1CCN(c2ccc(F)cc2)CC1	91	-2.8	0	161	i	34	0.97
39	COc1cc(/C=N/Nc2ccccn2)ccc1OCC(C)C	100	·	-9	·	i	·	0.79
40	CC(C)CCC(C)NC(=O)c1ccc2nccnc2c1 (centres undefined)	104	·	-6	43	i	-7	0.92
41	CCOCCCNC(=O)c1cc(=O)n(Cc2cccc(C)c2)c2ccccc12	112	·	-2	35	i	-25	0.89
42	CCCCC(CC)CNS(=O)(=O)c1ccc2c(c1)CCN2C(=O)CCC(=O)O (centres undefined)	120	0.1	-7	·	i	·	1.1
43	Cc1ccccc1CS(=O)(=O)c1nnc([C@H](Cc2ccccc2)NC(=O)OC(C)(C)C)o1	92	2.9	-5	88*	i	78*	0.66
44	CCCCn1c(=O)c(-c2ccccc2)c(O)c2ccccc21	103	0.0	9	·	i	·	0.95
45	CCCCn1c(=O)c2c(O)cc(=O)oc2c2ccccc21	100	-4.4	12	·	·	·	·
46	CCOC(=O)c1[nH]c2c(c1C)C(=O)CC(c1ccc(OC)c(OC)c1)C2 (centres undefined)	103	-0.4	2	130	i	-383	1.1
47	CN(C(=O)c1ccc(S(=O)(=O)c2cccc(Cl)c2)c([N+](=O)[O-])c1)C1CCCCC1	108	-0.4	-2	122	i	-14	0.55
48	COC(=O)[C@@]1(Cc2ccc(F)cc2)[C@H]2c3cc(C(=O)N(C)C)n(CCc4ccc(OC)c(Br)c4)c3C[C@H]2CN1C(=O)c1ccccc1	106	2.1	-2	89	·	15	·
49	COc1cccc(NC(=O)CN(C)CC(=O)Nc2ccc3c(c2)CCC3)c1	103	·	0	134	i	17	0.74
50	COc1ccc(-c2csc(NC(=O)CCn3cnc4ccccc4c3=O)n2)cc1OC	103	0.9	2	90	i	-13	0.81
51	O=C(O)CCn1c(C2CCCCC2)nc2ccccc21	105	-0.8	-2	·	i	·	0.93
52	COc1cc(/C=C/C(=O)Nc2nnc(C(C)(C)C)s2)cc(OC)c1OC	97	0.1	-9	86	i	3	0.88
53	O=C(C[n+]1cc(-c2ccc(Br)cc2)n2c1CCCCC2)c1ccccc1	102	·	0	·	i	·	0.9
54	O=C(COC(=O)c1ccc(S(=O)(=O)NCc2ccco2)cc1)NCCC1=CCCCC1	102	-2.1	-4	·	i	·	0.75
55	COc1cc(S(=O)(=O)N2CCN3CCCC3C2)ccc1-n1cnnn1 (centres undefined)	79	-0.2	-8	·	i	·	1
56	COc1ccccc1N1C(=S)N=C(Nc2c(C)cccc2C)C12CCCC2	112	·	·	·	i	·	0.99
57	COc1ccc(C(=O)Nc2ccc(C(=O)OCC(=O)c3cccc4ccccc34)cc2)cc1	100	-1.4	-7	·	i	·	0.95
58	NC(=S)c1ccc(C(N)=S)o1	102	-0.9	2	·	i	·	1
59	O=C(O)C1Sc2[nH]c(=O)sc2C2c3cc(Br)ccc3OC(=O)C12 (centres undefined)	95	·	·	·	?	·	·
60	Cc1cc(=O)n2nc(N3CCCC3C(=O)NCCCN3CC(C)CC(C)C3)sc2n1 (centres undefined)	104	-1.4	-6	146	i	-29	0.87
61	CCCCN(C(=S)NC(=O)c1ccccc1)c1c(N)n(Cc2ccccc2)c(=O)[nH]c1=O	167	-2.0	-2	·	i	·	1.1
62	CC12CN(NC(=O)c3ccccc3F)C3(C#N)CC1CCC23C (centres undefined)	110	·	8	·	i	·	1
63	CC1CC1c1ccc(/C=C(\C#N)C(=O)Nc2ccc(Cl)cc2Cl)o1 (centres undefined)	100	3.3	-24	·	·	·	·
64	Oc1ccc(Br)cc1C=Nc1ccc2[nH]ncc2c1	99	1.3	1	·	i	·	0.99
65	O=C(NCCCn1ccnc1)C(=O)NCC1OCCCN1S(=O)(=O)c1ccc(F)cc1 (centres undefined)	102	·	-9	101	i	-3	1.1
66	COC(=O)c1ccc(S(=O)(=O)c2ccc(C(=O)OC)s2)s1	100	0.1	-12	·	i	·	1.1
67	COc1ccc(NC(=O)c2nn(C)cc2[N+](=O)[O-])cc1	100	·	·	·	i	·	1.1
68	CCN(CC)c1ccc(NC(=O)c2cc(OC)cc(OC)c2)c(C)c1	99	-0.9	-2	18	·	-91	·
69	CC1CCN(C(=O)CN(c2ccc(Cl)c(C(F)(F)F)c2)S(C)(=O)=O)CC1	131	-1.1	-11	49	i	49	0.89
70	N#CC(c1cccc(C(F)(F)F)c1)(c1ncc(C(F)(F)F)cc1Cl)N1CCOCC1 (centres undefined)	103	-0.1	7	133	i	18	0.96
71	Cc1cc(NC(=O)CSc2nc3ccccc3c(=O)n2Cc2ccc(F)cc2)no1	98	-2.1	-7	99	i	-79	0.89
72	CC(=O)OCCNc1cc(N2CCN(C)CC2)c2noc3c2c1C(=O)c1ccccc1-3	93	-2.6	4	83	i	20	0.89
73	CCc1ccc(NC(=O)Cn2ncc3c4ccccc4n(C)c3c2=O)cc1	97	·	·	·	i	·	0.99
74	COc1ccc(-c2nnc(CSc3nc4ccccc4c(=O)n3C)o2)cc1OC	100	-3.0	4	·	i	·	0.96
75	COc1ccccc1/C=C/CN1CCCC(CCC(=O)NCc2ccccc2F)C1 (centres undefined)	100	·	-7	·	i	·	0.9
76	CC(C)(C)CC(C)(C)NC(=S)NC1CCN(Cc2ccccc2)CC1	101	2.8	3	·	i	·	0.74
77	COc1ccc(S(=O)(=O)N2CCN(C(=O)CCC3CCCC3)CC2)cc1	102	-0.8	-5	108	i	-42	0.82
78	COC(=O)c1ccc(/C=C/C(=O)O)cc1	98	·	·	·	i	·	0.96
79	CCOC(=O)C1=C(O)C(Nc2nccs2)(C(F)(F)F)N=C1C (centres undefined)	102	-1.4	1	·	·	·	·
80	CN1C(=O)NC(NS(=O)(=O)c2ccc(N)cc2)(C(F)(F)F)C1=O (centres undefined)	98	·	-1	·	i	·	0.96
81	Cn1c(Cl)c(C(=O)Nc2ccccc2)c2ccccc21	174	-3.6	-2	101	i	-10	0.87
82	COc1cccc(OCc2nc(-c3ccc(Br)o3)no2)c1	106	·	0	96	i	-27	0.96
83	Cc1cc2ccccc2c(=O)n1CC(=O)Nc1ccc2c(c1)OCO2	99	-2.4	-2	·	i	·	0.62
84	O=C(O)/C=C\C(=O)NNC(=O)c1cc(-c2ccccc2)n[nH]1	93	·	·	·	i	·	0.97
85	COC(=O)[C@H](Cc1ccccc1)NC(=O)N1CC(C)OC(C)C1 (some centres undefined)	99	-2.2	-27	79	i	7	0.85
86	CC(C)OCCCNC(=O)C(=O)NCCCOC(C)C	99	-0.3	-3	83	i	29	0.93
87	CCCCCC/C=C/c1ccc(OC)c([C@H]2[C@H]3C=CC[C@@H](C)[C@@H]3C(=O)N2Cc2ccccc2)c1	99	·	·	·	i	·	0.75

# Screening data deposited in PubChem BioAssay by several laboratories.
